# Screening data: PubChem BioAssay, National Center for Advancing Translational Sciences (NCATS)
# HSD17B inh = qHTS Assay for Inhibitors of HSD17B4, hydroxysteroid (17-beta) dehydrogenase 4. 7.6% of 75,000 active. recombinant HSD17B10, NADH fluorescence kinetic; many of its hits are not listed in these tables. Potency, µM (highest dose often 57.1 µM), for inactives: at the highest dose activity change, negative = inhibition, most hits filed as inhibitors. 3-hydroxyacyl-CoA dehydrogenase type-2 (Homo sapiens), Q99714; active means well fitted inhibition curve with a large enough effect; inconclusive means small, poorly fitted or top-dose-only effect; inactive means no such curve, though single readings can be large or run the other way;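 further: the protocol describes HADH2 (HSD17B10) and not the HSD17B4 of the title; nearly all actives have a fitted effect of over 70% in size; most hits overshoot -100% by far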
#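 20 nM HADH2, pH 9.0 Tris/Tween; cpd preinc 15 min RT; start w/ 1 mM NAD+ + 90 uM b-hydroxybutyryl-CoA; kinetic fluor ex360/em450 q30s x 4 min; delta last-first.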
# * marks the source's active call; other numbers are inactive results; ? = inconclusive; [ ] = another dose, or the depositor's remark. On the % scale 0 is the no-effect control and ±100 the full control effect; potency means the concentration at half of the fitted maximal effect. A portion of the library (hit frequency here may not be typical).
SMILES,HSD17B inh
O=C(CSc1nnc(COc2ccccc2)o1)NCCc1ccccc1,3%
CCOc1ccccc1NC(=O)CSc1nc2cccnc2n1C,-4%
O=C(NCCN1C(=O)C2C3C=CC(C3)C2C1=O)Nc1ccccn1 (stereo unspecified),2%
NCCC[C@H](N)CC(=O)N[C@H]1CNC(=O)[C@@H]([C@@H]2C[C@H](O)N=C(N)N2)NC(=O)/C(=C/NC(N)=O)NC(=O)[C@@H](CO)NC(=O)[C@@H](CO)NC1=O,-2%[25.6 µM]
O=C(CN1CCC(n2nnc3cc(F)ccc32)CC1)Nc1ccc2c(c1)CCC2,-6%
Cc1cc(C)n2nc(Nc3ccccc3)cc2n1,-14%
CSc1cccc(NC(=O)C2CCCN(S(=O)(=O)c3ccc(F)cc3)C2)c1 (stereo unspecified),-1%
CCN1CCN(C(=O)CN(C)S(=O)(=O)c2ccc(OC)cc2)CC1,7%
CCC(=O)Nc1cccc(NC(=O)c2ccc3c(c2)OCO3)c1,5%
Nc1c(N2CCCCC2)c(=O)[nH]c(=O)n1-c1ccccc1,4%
Cc1cccc(-n2c(CCN3C(=O)c4ccccc4C3=O)nc3ccccc3c2=O)n1,4%
O=C(NCCN=C1NS(=O)(=O)c2ccccc21)c1ccc(S(=O)(=O)N2CCOCC2)cc1,-5%
CCOC(=O)/C=c1\s/c(=C\c2ccccc2OC)c(=O)n1CC(=O)N1CCOCC1,-10%
CCN1CCN(c2nc(SC)nc3sc4c(c23)CC(C)(C)OC4)CC1,?
Cc1cc(C)n(-c2ccc(C(=O)NC3=NCCS3)cc2)n1,2%
CCCCOc1ccc(Cl)cc1CSc1nnc(CC)n1N,2%
COc1ccccc1NC(=O)c1cc(S(=O)(=O)N2CCC3(CC2)OCCO3)ccc1F,8%
O=S1(=O)N=C2CCCCCN2C(c2ccncc2)N1 (stereo unspecified),8%
N#CC(C(=O)CCN1C(=O)C2CC=CCC2C1=O)c1nc2ccccc2[nH]1 (stereo unspecified),-8%
CC1=CC(=C2C(=O)c3ccccc3C2=O)C=C(C)O1,-8%
CCOc1ccccc1NC(=O)Cn1cnc2c(cnn2-c2ccc(C)c(C)c2)c1=O,?
O=C(Nc1ccn(Cc2ccc(Cl)cc2)n1)c1ccc2c(c1)OCO2,-6%
CC1CCc2c(sc(N)c2C(N)=O)C1 (stereo unspecified),-8%
N#Cc1cccc(-c2nc(N3CCNCC3)c3ccccc3n2)c1,8%
COC(=O)CS(=O)(=O)c1ccc2c(c1)CC(=O)N2,3%
O=C(Nc1ccc2nn(-c3ccccc3)nc2c1)c1cccs1,20µM*
Cc1cc(C)n2nc(SCc3cc(=O)n4ccccc4n3)nc2n1,-22%
CC(O)/C=C/c1cccc[n+]1C (stereo unspecified),-4%
COc1ccc(-c2cn3ccccc3n2)cc1OC,25µM*
C=CCNC(=O)CN1CCC(O)(c2ccc(F)cc2)CC1,7%
O=P(COCCO)(c1ccccc1)c1ccccc1,-7%
O=C(CN1CCCCCC1)Nc1cccc2c1OCO2,0%
COc1ccc(C(=O)Nc2ccc(S(=O)(=O)N3CCCCC3)cc2)cc1OC,-1%
Cc1ccc(C)n1C1CCS(=O)(=O)C1 (stereo unspecified),-6%
C[C@@H](C(=O)Nc1ccc2ccccc2c1)[C@H]1C[C@]1(C)[C@H](NS(=O)(=O)c1ccc2ccccc2c1)c1ccccc1,-21%
CCCn1c(C)nc2c(N3CCCN(Cc4ccccc4)CC3)nc(C)nc21,-4%
COc1cc(SC)ccc1C(=O)NCCCOC(C)C,3%
COc1cc2nc(CN(C)CC(=O)Nc3ccc(N4CCOCC4)cc3)[nH]c(=O)c2cc1OC,8%
COc1cccc(CNC(=O)Cn2cc3c(n2)CCCCC3)c1,-1%
COCC(=O)N1CCC2(CCCN(C(=O)Nc3ccccc3)C2)CC1,4%
O=C(CSc1nc2c(c(=O)n1-c1ccc(F)cc1)SCC2)N1CCCC1,-3%
CC(C)Oc1ccc(C(=O)Nc2ccc(N3CCCC3)cc2)cc1,?
O=C(c1nsc(Cl)c1Cl)N1CCCCC1,-1%
O=C(COc1ccc(S(=O)(=O)NCCc2ccccc2)cc1)N1CCCC1,0%
Cc1cccc(C)c1Nc1nc2ccccc2o1,-2%
CC(Oc1ccc(NC(=O)c2ccco2)cc1)C(=O)N1c2ccccc2CC1C (stereo unspecified),6%
Cc1noc(C)c1C(=O)OCC(=O)NCCc1ccc(Cl)cc1,4%
Cn1c(=O)cc(SCC(=O)NCc2cccnc2)c2ccccc21,-9%
CCN(CC)CCNC(=O)c1cn(CC)c2ccc(S(=O)(=O)N(C)C)cc2c1=O,-3%
COc1cccc(CNC(=O)c2cc3ccccn3n2)c1,?
CN1CCN(C(=O)CCCOc2ccc(Cl)cc2Cl)CC1,5%
CCOC(=O)CCC(=O)OCC(=O)NC(C)C1CC2CCC1C2 (stereo unspecified),-1%
c1ccc2c(CNCCN3CCOCC3)cccc2c1,9%
COc1ccc(C(=O)CCN(C)C)c2ccccc12,-16%[11.4 µM]
COc1ccc(C(=O)CN2C(=O)NC3(CCCc4ccccc43)C2=O)cc1OC (stereo unspecified),-25%
Cc1ccccc1NS(=O)(=O)c1cc(C(=O)N2CCCC2)ccc1C,5%
O=C(NCc1ccco1)c1nc2ncccn2n1,5%
Cc1nnc(C)n1/N=C/c1cccc(Oc2ccccc2)c1,4%
COc1ccc(/C(O)=C2/C(=O)C(=O)N(CCCN(C)C)C2c2ccc(Cl)cc2)cc1OC (stereo unspecified),5%
CC1(C)CC(=O)C(C(c2cccnc2)C2C(=O)CC(C)(C)CC2=O)C(=O)C1,0%

# Structures above with a cyano group (2):
SMILES,HSD17B inh
N#CC(C(=O)CCN1C(=O)C2CC=CCC2C1=O)c1nc2ccccc2[nH]1 (stereo unspecified),-8%
N#Cc1cccc(-c2nc(N3CCNCC3)c3ccccc3n2)c1,8%

# Next section
SMILES,HSD17B inh
COc1cc(SC)ccc1C(=O)N1CCCCCC1,4%
N=c1ccn(Cc2ccc(Cl)cc2)cc1,6%
COc1ccc(-c2nnc(SCc3nnc(-c4ccccc4)o3)n2-c2ccccc2)cc1,13%
Brc1ccc(-c2nnc3sc(CNC4CCCC4)cn23)cc1,3%
NC(=O)CSc1nc2sc3c(c2c2ncnn12)CCCC3,7%
Cc1ccc2[nH]c(=O)c(CN(Cc3nnnn3C3CCCC3)C3CCCCC3)cc2c1,1%
Cc1ccc(CCNC(=O)CS(=O)Cc2nc(-c3cccc(C)c3)oc2C)cc1 (stereo unspecified),-12%
CC1CCN(S(=O)(=O)c2ccc(NC(=O)CN3CCN(C)CC3)cc2)CC1,9%
c1ccc(-c2csc(N3CCN(c4ccccn4)CC3)n2)cc1,4%
CCCc1nc(S(=O)(=O)Cc2ccc(Cl)cc2Cl)n[nH]1,-7%
CC(C)CCn1nnnc1C(c1ccc(N(C)C)cc1)N1CCN(C(=O)c2ccco2)CC1 (stereo unspecified),-14%
COc1ccc(Cl)cc1NC(=O)CSc1nnc(COc2ccccc2)n1N,-4%
COC(=O)c1cc(COc2ccc3ccc(=O)oc3c2)c(C)o1,25µM*
CCOC(=O)N1CCN(C(=O)c2ccc3c(=O)n(-c4ccc(OC)cc4OC)c(=S)[nH]c3c2)CC1,-5%
Cc1nnc2ccc(N3CCN(c4ccccn4)CC3)nn12,-2%
N[C@@]12CCc3nonc3[C@]1(O)CC(c1ccccc1)=[N+]2[O-],0%
Cc1ccc(C(=O)C2CCN(CC(=O)Nc3ccc4c(c3)OCCO4)CC2)cc1,7%
Clc1c(-c2nnc3n2CCC3)sc2ccccc12,3%
CNC(=O)C1CCCN1S(=O)(=O)c1ccc(OC)cc1 (stereo unspecified),3%
CC1(C)OC(=O)C2(Cc3ccccc3N3CCCCC32)C(=O)O1 (stereo unspecified),1%

# 3 entries already listed, ordered by number of heavy atoms, rising.
SMILES,HSD17B inh
N=c1ccn(Cc2ccc(Cl)cc2)cc1,6%
Cc1nnc2ccc(N3CCN(c4ccccn4)CC3)nn12,-2%
COc1ccc(-c2nnc(SCc3nnc(-c4ccccc4)o3)n2-c2ccccc2)cc1,13%

# Following part
SMILES,HSD17B inh
O=C(CSc1nnc(C2CC2)n1Cc1ccccc1)N1CCN(S(=O)(=O)c2ccccc2)CC1,4%
CCCOc1ccccc1N1C(=O)CC(N2CCOCC2)C1=O (stereo unspecified),-4%
CC(CCO)Nc1nc2c(c(=O)n(C)c(=O)n2C)n1Cc1cccc(Br)c1 (stereo unspecified),7%
COC(=O)[C@@H]1CC[C@H](C)[C@@H](c2ccc(C)cc2)N1C(=O)c1ccc(/C=N\O[C@@H](C)c2cc(-c3c(C)cc(C)cc3C)no2)cc1,2%[11.4 µM]
CCOC(=O)c1ccc(Nc2ccc(-c3ccc(OC)c(OC)c3)nn2)cc1,-12%
Cc1nc(SCC(=O)Nc2cc(C)on2)c2c3c(sc2n1)CCCC3,5%
Cc1cc(Cl)ccc1OCCCC(=O)Nc1cccnc1,-1%
O=C(NCCCn1ccnc1)c1cnn2c1NC(c1ccccc1)CC2C(F)(F)F (stereo unspecified),11%
CCC(Oc1ccccc1)C(=O)Nc1ccccn1 (stereo unspecified),1%
COc1ccc(NC(=O)NCCCN2CCc3ccccc3C2)cc1,6%
CC(=O)Cn1c(N2CCC(Cc3ccccc3)CC2)nc2c1c(=O)[nH]c(=O)n2C,-12%
Cc1ccc(S(=O)(=O)Nc2ccc3c(c2)nc2n3CCN(Cc3ccccc3)C2)cc1,?
CNC(=O)C1(C)C=CCN1C(=O)OC (stereo unspecified),18%
Cc1cccc(NC(=O)CSc2nnc(-c3ccco3)o2)c1C,-1%
O=C(c1ccco1)N1CCN(C(c2ccc(F)cc2)c2nnnn2Cc2cccs2)CC1 (stereo unspecified),-2%
COc1ccccc1NC(=O)c1ccc(S(=O)(=O)N(C)C)cc1,-2%
CCCn1c2c(c(O)c(C(=O)Nc3nccs3)c1=O)CCCC2,6%
CC1(C)SC2C(N3C(=O)C(c4ccccc4)NC3(C)C)C(=O)N2C1C(=O)O (stereo unspecified),?
O=C(c1ccccc1)c1ccc(OC(=O)N2CCOCC2)cc1,3%
Cn1ccnc1SCC(=O)NC1CCCCC1,12%

# Laid out differently: results already given.
Compound | HSD17B inh
Cc1ccc(S(=O)(=O)Nc2ccc3c(c2)nc2n3CCN(Cc3ccccc3)C2)cc1 | ?
CNC(=O)C1(C)C=CCN1C(=O)OC (stereo unspecified) | 18%
O=C(CSc1nnc(C2CC2)n1Cc1ccccc1)N1CCN(S(=O)(=O)c2ccccc2)CC1 | 4%

# (list continues)
SMILES,HSD17B inh
COc1cc(CC(=O)N2CCc3ccccc32)cc(OC)c1OC,10%
Cc1cccc(-n2cnc3c(c2=O)c2nc4ccccc4nc2n3Cc2ccco2)c1,32µM*
CCCCNc1cc(C)nc(NCc2ccccc2)n1,-14%
CCOc1ccc2ccccc2c1C(=O)N1CCOCC1,12%
COc1ccc(S(=O)(=O)Nc2ccccc2C(F)(F)F)cc1,1%
N#CCCN(C(=O)Nc1ccc(Cl)cc1)c1ccccc1,7%
COc1ccc(NC(=O)c2cc3n(n2)C(C(F)(F)F)CC(c2ccco2)N3)cc1 (stereo unspecified),-2%
Cc1sc2ncnc(SC(C)C#N)c2c1C (stereo unspecified),-5%
CC1=Nn2c(nnc2-c2n[nH]c3c2CCC3)SC1,5%
Cc1ccc2c(c1)C(N1CCN(C)CC1)=Nc1cccnc1N2,-4%
CCOC(=O)C1CCN(c2c(NCCCN3CCN(Cc4ccccc4)CC3)c(=O)c2=O)CC1,-8%
CCn1c(Cc2ccccc2)nnc1SCc1nc2ccccc2c(=O)[nH]1,4%
O=C(c1csnn1)N1CCC2(CCCN(C(c3ccccc3)c3ccccc3)C2)CC1,-12%
CCOC(=O)c1c(C)c(C(=O)Nc2ccc3c(c2)OCCO3)c(C)n1C,-1%
O=c1c(-c2ccccc2)n[nH]c2ccccc12,-19%
COc1ccccc1C1SCCN1S(C)(=O)=O (stereo unspecified),9%
Nc1nc(-c2ccccc2)cc(-c2ccccc2O)n1,3%
COc1cc(C)nc(NC(=O)COc2ccc(Cl)cc2C)n1,0%
CC(C)=CC(=O)OCC(=O)NC(=O)NC(C)(C)C,-1%
CC1CCCCC1NC(=O)C1CCN(C(=O)c2sccc2-n2cccc2)CC1 (stereo unspecified),2%

# By substructure: the compounds so far with bromine
SMILES,HSD17B inh
Brc1ccc(-c2nnc3sc(CNC4CCCC4)cn23)cc1,3%
CC(CCO)Nc1nc2c(c(=O)n(C)c(=O)n2C)n1Cc1cccc(Br)c1 (stereo unspecified),7%

# Remaining list, next part.
SMILES,HSD17B inh
CCOCCCNS(=O)(=O)c1ccc2c(c1)oc(=O)n2CC(=O)OCC,11%
C=CCn1cnc2scc(-c3ccccc3)c2c1=O,2%
O=C(Nc1nccs1)c1ccc(Br)o1,-7%
CCCn1c(SCC(=O)NCCc2ccccc2)nnc1-c1cccnc1,2%
COC(=O)[C@H]1C[C@@H]1[C@H](NC(=O)c1cc(C)nn1C)c1ccccc1,4%
CC1(C)CC(=O)CC(C)(C)N1OC(=O)c1ccccn1,-3%
NC(=O)c1oc2ccccc2c1NC(=O)c1ccco1,?
CC1CCC/C(=C\Nc2ccc(O)cc2)C1=O (stereo unspecified),?
Cc1ccc(S(=O)(=O)N2CCN(C(=O)CC3CCCC3)CC2)cc1,2%
COCCNC(=O)C(c1ccccc1)N(CCOC)C(=O)Cn1nnc2ccccc21 (stereo unspecified),10%
COc1cccc(-c2nc(CS(=O)(=O)CC(=O)NCCC(C)C)c(C)o2)c1,-1%
